Sfp PPTase inh – inhibitors of Bacillus subtilis Sfp phosphopantetheinyl transferase; AID 1490; Potency, µM, for inactives: max response, negative = inhibition, most hits filed as inhibitors; 310,000 compounds, 3.5% hits; Q9F4F7; Biochemical Sfp PPTase activity, qHTS; active = well fitted inhibition curve with a large enough effect; inconclusive = small, poorly fitted or top-dose-only effect, or another doubt; inactive = no such curve, though single readings can be large or run the other way;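 note: the enzyme is Sfp with the accession as filed and its product quenches rhodamine fluorescence; potency is the fitted concentration of half-maximal effect; 0% = enzyme reaction without inhibitor and -100% = no enzyme wells; top concentration of the series not given in the record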
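After 15 min at room temperature with compound, 15 nM Sfp received 5 uM rhodamine-CoA plus 12.5 uM BHQ-2-ybbR (50 mM Hepes pH 7.6, 10 mM MgCl2). Rate came from the fluorescence difference over 30 min, ex 525/em 598 nm.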
gsp agonist – gsp mutant agonism. Potency, µM (titrated, usually from 76.9 µM), without a hit: at the highest dose activation (cAMP increase), actives largely listed as activators. 340,000 compounds, 0.13% hits. AID 624287. gsp mutant cells, cAMP HTRF, 30 min; control for the full effect not named in the record; active = well fitted activation curve with a large enough effect; inconclusive = small, poorly fitted or top-dose-only effect, or another doubt; inactive = no such curve, though single readings can be large or run the other way; cell line not stated here;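 note: phosphodiesterase inhibitor Ro 20-1724 added with compounds to block cAMP breakdown; potency is the fitted concentration of half-maximal effect; nearly all actives have a fitted effect of over 60% in size; about a fifth of the inactives were tested at one dose only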
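Cells stably selected in G418 were plated at 2000/well, grown 16-24 hr, then given compounds in DMSO with the PDE inhibitor […] (300 uM solution added) for 30 min at 37C; cAMP was read by HTRF.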
Menin-MLL FL inh – menin-MLL binding inhibition, fluorescein peptide | Fluorescence polarization, fluorescein-MLL peptide displacement from menin | FP activity change, % at 61.4 µM | 290,000 tested, under 10 active | AID 1766; inconclusive = falling polarisation curve, or a change in total fluorescence; inactive = total fluorescence flat and polarisation flat or rising; no compound was filed as active; the % refers to the polarisation; negative = inhibition;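 note: % of control where 0% means no effect; inhibitors lower the polarisation; unlabelled MLL peptide was the positive control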
TRPV1 potentiator – human TRPV1 potentiation | 320,000 compounds, 0.02% hits | Q8NER1 | TRPV1-expressing cells, Fluo-8 calcium influx, capsaicin EC20 potentiation; host cell line not named in the record; control for the full effect not named in the record | potentiation, % at 8.33 µM; active means potentiation above 80%; inconclusive means 30% to 80%; inactive means below 30%; note: 0% is about no effect
Target sequence (Q8NER1 whole entry, looked up): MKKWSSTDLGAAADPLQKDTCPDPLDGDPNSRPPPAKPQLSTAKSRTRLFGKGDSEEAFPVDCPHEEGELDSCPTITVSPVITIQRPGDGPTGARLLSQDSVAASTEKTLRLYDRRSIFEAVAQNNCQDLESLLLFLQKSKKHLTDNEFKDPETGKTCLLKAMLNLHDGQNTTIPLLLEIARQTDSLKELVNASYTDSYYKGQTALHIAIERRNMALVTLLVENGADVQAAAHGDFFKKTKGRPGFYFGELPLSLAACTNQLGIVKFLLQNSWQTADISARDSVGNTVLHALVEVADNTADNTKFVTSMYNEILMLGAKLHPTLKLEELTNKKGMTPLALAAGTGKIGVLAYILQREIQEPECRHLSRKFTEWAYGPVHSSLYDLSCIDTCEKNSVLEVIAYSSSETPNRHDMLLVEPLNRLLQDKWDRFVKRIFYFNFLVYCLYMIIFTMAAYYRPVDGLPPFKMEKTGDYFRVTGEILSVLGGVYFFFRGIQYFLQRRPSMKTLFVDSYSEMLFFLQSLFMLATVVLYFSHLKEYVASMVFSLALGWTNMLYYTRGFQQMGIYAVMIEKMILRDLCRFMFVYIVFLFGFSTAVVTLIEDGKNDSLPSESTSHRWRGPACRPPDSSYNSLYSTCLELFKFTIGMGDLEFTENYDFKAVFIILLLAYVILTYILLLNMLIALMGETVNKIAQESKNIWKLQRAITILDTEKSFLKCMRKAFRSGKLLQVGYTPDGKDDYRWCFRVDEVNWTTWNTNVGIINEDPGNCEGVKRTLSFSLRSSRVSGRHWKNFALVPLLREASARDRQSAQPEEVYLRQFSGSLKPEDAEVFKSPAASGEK
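Cells expressing TRPV1 were dye-loaded with Fluo-8 and read kinetically: 10 s baseline, 3 min after compound (agonist portion), then 2 min after EC20 capsaicin (allosteric enhancer portion). Calcium-bound dye fluorescence at 480/520 nm.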
ClpP mod – qHTS Assay for Activators of ClpP; ATP-dependent Clp protease proteolytic subunit (Bacillus subtilis (strain 168)), P80244; purified B. subtilis ClpP, FRET peptide cleavage, 20 min; Potency, µM (titrated, usually from 57.5 µM), inactives show top-dose activity change, negative = active; 340,000 compounds, 1.9% hits; AID 651965, 2013; active = well fitted falling curve with a large enough effect; inconclusive = small, poorly fitted or top-dose-only effect; inactive = no such curve, though single readings can be large or run the other way; note: potency is the fitted concentration of half-maximal effect; the source files actives as falling curves though it sought activators and does not explain the sign; nearly all actives have a fitted effect of over 65% in size; many hits overshoot -100%
Target sequence (P80244 whole entry, looked up): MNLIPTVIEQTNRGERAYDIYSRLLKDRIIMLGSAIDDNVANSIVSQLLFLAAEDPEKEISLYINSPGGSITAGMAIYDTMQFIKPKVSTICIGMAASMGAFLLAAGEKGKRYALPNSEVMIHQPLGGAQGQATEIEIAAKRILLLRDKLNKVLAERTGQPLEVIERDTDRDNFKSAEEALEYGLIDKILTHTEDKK
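ClpP 10 microg/mL final, pH 8 Tris/KCl buffer with BSA, glycerol, Tween-20; compound pinned in; FRET-FV substrate; RT 20 min; Ex320/Em430; ΔFRET vs ADEP 5.8 microM, DMSO, no enzyme.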
gsp antag – gsp mutant antagonism | gsp-mutant cells, cAMP HTRF, 30 min; control for the full effect not named in the record | Potency, µM (doses to about 76.9 µM), inactives show top-dose activity change, negative = inhibition, actives largely listed as inhibitors | 340,000 compounds, 0.4% hits | AID 624288; active = falling curve of any shape with a large fitted effect; inconclusive = falling curve, mostly with a smaller effect; inactive = flat or rising curve; cell line not stated here;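 note: intracellular cAMP measured with PDE inhibitor Ro 20-1724 present during compound exposure; potency is the fitted concentration of half-maximal effect; % is set by controls: 0 for no effect and ±100 for the full control effect; nearly all actives have a fitted effect of over 65% in size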
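Measurement of cellular cAMP by homogeneous time-resolved fluorescence following a 30 min compound exposure at 37C. The PDE inhibitor […] was present throughout; the assay buffer was DPBS with 0.05% BSA and 0.005% Tween 20.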
CtBP-E1A inh – inhibitors of CtBP/E1A interaction. AlphaScreen GST-E1A/His-CtBP binding, 1536-well; active compounds read low; control for the full effect not named in the record. activity change, % (no concentration beside the values). 340,000 compounds, 0.49% hits; in the data active means activity change below about -65%; inconclusive means about -30% to -65%; inactive means above about -30%; note: % is set by controls: 0 for no effect and ±100 for the full control effect
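Steps: dispense buffer (Tris pH 8.0, NaCl 300 mM, TCEP 1 mM, BSA, Tween 20); add 5X protein mix (GST-E1A, His-CtBP, 125 nM each); pin 23 nL compound; 2 h at 37 °C, dark; add 5X beads (50 ug/mL); 1 h; read.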
Numbers without * were called inactive; [ ] = another dose, or the depositor's remark.

CCc1ccc(C(=O)COC(=O)c2nn(C)c(=O)c3ccccc23)cc1 was read as Sfp PPTase inh -19%, gsp agonist -1%[15.4 µM], Menin-MLL FL inh 0.8, TRPV1 potentiator 8, ClpP mod -1.6%, gsp antag -20% and CtBP-E1A inh 0.
Screening CC(C)c1ccc(N2C(=O)CC(Sc3ncccn3)C2=O)cc1 (stereo not drawn) returned Sfp PPTase inh 23%, gsp agonist inconclusive, Menin-MLL FL inh -0.2, TRPV1 potentiator -4, ClpP mod -0.5% and gsp antag 5%.
For O=C(COc1ccccc1Br)N1CCN(C(=O)c2cccs2)CC1 the results were gsp agonist -8%, TRPV1 potentiator 4, ClpP mod -1.3%, gsp antag 3% and CtBP-E1A inh -4.
CCN1CCN(C(=O)c2cc(S(=O)(=O)N3CC(C)CC(C)C3)ccc2Cl)CC1 (stereo not drawn) was read as gsp agonist -28%, TRPV1 potentiator 19, ClpP mod 1.2%, gsp antag -6% and CtBP-E1A inh 1.
For O=C(NCCC1=CCCCC1)c1cc2c(s1)CS(=O)(=O)C2 the results were Sfp PPTase inh 5%, gsp agonist -20%, Menin-MLL FL inh 6.1, TRPV1 potentiator -19, ClpP mod 0.2%, gsp antag 5% and CtBP-E1A inh 12.
c1ccc(OCc2nn3c(-c4ccco4)nnc3s2)cc1 was read as Sfp PPTase inh inconclusive, gsp agonist inconclusive, Menin-MLL FL inh 9.6, ClpP mod -1.3%, gsp antag 2% and CtBP-E1A inh -2.
`O=C(Nc1cc(C(F)(F)F)ccc1N1CCOCC1)c1n[nH]c(=O)c2ccccc12` gave Sfp PPTase inh 9%, gsp agonist 1%, Menin-MLL FL inh 0.2, TRPV1 potentiator -10, ClpP mod -1.2%, gsp antag 12% and CtBP-E1A inh 4.
`CC(NC(=O)COc1ccc([N+](=O)[O-])cc1)c1ccccc1` (stereo not drawn) gave Sfp PPTase inh 8%, gsp agonist 2%, Menin-MLL FL inh 4.3, TRPV1 potentiator -20, ClpP mod -1.1%, gsp antag 3% and CtBP-E1A inh -8.
Cc1cc(NC(=O)c2n[nH]c(=O)c3ccccc23)ccc1Br was read as Sfp PPTase inh 22%, gsp agonist -27%[15.4 µM], Menin-MLL FL inh 1.9, gsp antag 12% and CtBP-E1A inh 0.
For COc1cc(COCC(O)CN2C(C)CCCC2C)cc(OC)c1OC (stereo not drawn) the results were Sfp PPTase inh 12%, gsp agonist -11%, Menin-MLL FL inh 0.6, TRPV1 potentiator 18, ClpP mod 1.0%, gsp antag -6% and CtBP-E1A inh 10.
For CCCCNCCOCCSc1ccc(Cl)cc1 the results were Sfp PPTase inh -10%, gsp agonist -37%[inhibitor], Menin-MLL FL inh -0.2, TRPV1 potentiator 0, ClpP mod 3.8%, gsp antag 11% and CtBP-E1A inh 9.
For CC(=O)c1ccc(C(=O)N2CCc3c([nH]c4ccccc34)C2c2ccccn2)s1 (stereo not drawn) the results were Sfp PPTase inh 2%, gsp agonist inconclusive, Menin-MLL FL inh -0.6, TRPV1 potentiator -14, gsp antag -7% and CtBP-E1A inh -3.
`Cc1ccc2c(c1)N(CC(=O)NCc1cccnc1)C(=O)CO2` gave Sfp PPTase inh 4%, gsp agonist 11%, Menin-MLL FL inh 2.5, TRPV1 potentiator -12, ClpP mod -2.3%, gsp antag 0% and CtBP-E1A inh -10.
For C[C@H](NC(=O)CCCOc1ccc(Cl)cc1Cl)c1nnc2ccccn12 the results were Sfp PPTase inh 19%, gsp agonist 32%, Menin-MLL FL inh -1.5, TRPV1 potentiator 0, ClpP mod -5.0%, gsp antag 8% and CtBP-E1A inh 5.
Screening CC(C)c1nnc(NC(=O)CCC(=O)NC2CCCc3ccccc32)s1 (stereo not drawn) returned Sfp PPTase inh 20%, gsp agonist -40%[inhibitor], Menin-MLL FL inh 6.7, TRPV1 potentiator 3, ClpP mod 1.7%, gsp antag 4% and CtBP-E1A inh 2.
`CCn1c(SCC(=O)NC2=NCCS2)nnc1C(C)NC(=O)c1ccccc1Br` (stereo not drawn) gave Sfp PPTase inh 17%, gsp agonist -20%, Menin-MLL FL inh 3.0, TRPV1 potentiator 4, gsp antag 11% and CtBP-E1A inh 1.
Screening O=C(O)c1ccccc1C(=O)NCc1c(Cl)cccc1Sc1ccc(Cl)cc1 returned Sfp PPTase inh 12%, gsp agonist 18%, Menin-MLL FL inh 3.9, TRPV1 potentiator inconclusive, gsp antag -5% and CtBP-E1A inh -1.
`O=[N+]([O-])c1c(N2CCN(CCO)CC2)nc2ccccn12` gave Sfp PPTase inh 11%, gsp agonist inconclusive, Menin-MLL FL inh -20, TRPV1 potentiator inconclusive, ClpP mod 2.1% and gsp antag 4%.
For CC(C)(C)C(Cn1ccnc1)NC(=O)c1ccc2nc(C3CC3)oc2c1 (stereo not drawn) the results were Sfp PPTase inh 11%, gsp agonist 9%[15.4 µM], TRPV1 potentiator 6, ClpP mod -1.8%, gsp antag 2% and CtBP-E1A inh 2.
For Cc1cc(NC(=O)CSc2nccn2-c2cccc(F)c2)no1 the results were gsp agonist -24%, ClpP mod -5.6%, gsp antag -2% and CtBP-E1A inh 0.
Screening COc1ccc(C(O)c2nccn2Cc2ccccc2)cc1OC (stereo not drawn) returned Sfp PPTase inh -13%, gsp agonist -19%, Menin-MLL FL inh 3.3, TRPV1 potentiator -15, ClpP mod 1.0%, gsp antag -11% and CtBP-E1A inh 0.
CCCCNC(=O)Cn1c(-c2ccc(OC)cc2)noc1=O was read as Sfp PPTase inh 3%, gsp agonist -6%, Menin-MLL FL inh 1.8, TRPV1 potentiator -6, ClpP mod -1.8%, gsp antag -1% and CtBP-E1A inh -2.
Screening CCC(=O)Nc1c2c(nn1-c1cccc(Cl)c1)CS(=O)(=O)C2 returned Sfp PPTase inh 22%, gsp agonist 1%, Menin-MLL FL inh 0.1, TRPV1 potentiator 2, ClpP mod -7.6% and gsp antag 4%.
CCOC(=O)C(=O)c1c(C)cc2ccccn12 was read as Sfp PPTase inh -13%, gsp agonist -5%, Menin-MLL FL inh -0.8, TRPV1 potentiator -9, ClpP mod -0.1%, gsp antag 8% and CtBP-E1A inh -7.
`CC(=O)C1=C(NC(=O)c2ccc(C(F)(F)F)cc2)C[C@@H]2[C@H]1C2(C)C` gave Sfp PPTase inh 11%, gsp agonist -35%[15.4 µM], Menin-MLL FL inh 0.4, TRPV1 potentiator 10, gsp antag 2% and CtBP-E1A inh 4.
Screening C=CCNC(=S)NNC(=O)COc1ccc(Cl)cc1Cl returned Sfp PPTase inh -8%, gsp agonist -13%, Menin-MLL FL inh 2.7, TRPV1 potentiator 5, ClpP mod 0.6%, gsp antag 5% and CtBP-E1A inh 5.
Screening Cc1ccc(C)c(C(=O)C(C)OC(=O)CN2C(=O)NC3(CC(C)CC(C)(C)C3)C2=O)c1 (stereo not drawn) returned Sfp PPTase inh 14%, gsp agonist -115%[inhibitor], TRPV1 potentiator -1, ClpP mod -1.0%, gsp antag -16% and CtBP-E1A inh -2.
Screening COc1ccccc1N1CCN(Cc2nc3ccccc3[nH]2)CC1 returned Sfp PPTase inh 3%, gsp agonist -9%[15.4 µM], Menin-MLL FL inh -4.4, TRPV1 potentiator 3, gsp antag 0% and CtBP-E1A inh 0.
Screening CCOc1ccc(NC(=S)N(CCN2CCOCC2)Cc2ccc3c(c2)CCCN3CC)cc1 returned Sfp PPTase inh 0%, gsp agonist inconclusive, Menin-MLL FL inh -0.5, TRPV1 potentiator 3, ClpP mod -3.3%, gsp antag -14% and CtBP-E1A inh -14.
`CC(C)[C@H](NC(=O)C1CC(=O)N(c2ccc(F)cc2)C1)C(=O)N1CCCCC1` (stereo partly drawn) gave Sfp PPTase inh 7%, gsp agonist -1%, Menin-MLL FL inh -3.1, TRPV1 potentiator -4, ClpP mod 0.2%, gsp antag 6% and CtBP-E1A inh -3.
For CCCCn1c(SCC(=O)c2ccc3c(c2)OCCO3)nnc1-c1ccoc1C the results were Sfp PPTase inh -13%, gsp agonist 2%[15.4 µM], Menin-MLL FL inh 3.2, TRPV1 potentiator -15, ClpP mod -28%, gsp antag -6% and CtBP-E1A inh -7.
Screening COC(=O)c1ccc(/C=N/n2c(C)nc3ccccc3c2=O)cc1 returned Sfp PPTase inh 1%, gsp agonist 21%, Menin-MLL FL inh 2.1, TRPV1 potentiator -3, ClpP mod 1.2% and gsp antag -4%.
CC(C)(C)OC(=O)C[C@@H]1C/C=C\C[C@H](CC(=O)N[C@@H](CO)Cc2ccccc2)C(=O)N[C@H](C(C)(C)C)COC1=O was read as gsp agonist -11%, ClpP mod 0.8%, gsp antag -1% and CtBP-E1A inh 6.
`COc1ccc(N(CC(=O)N/N=C/c2ccccc2OC)S(=O)(=O)c2ccccc2)cc1` gave Sfp PPTase inh 0%, gsp agonist 20%, Menin-MLL FL inh 2.5, TRPV1 potentiator -3, gsp antag -18% and CtBP-E1A inh -3.
C=CCNC(=S)NNC(=O)c1ccc(Br)o1 was read as Sfp PPTase inh 20%, gsp agonist 20%, Menin-MLL FL inh 0.1, TRPV1 potentiator 5, ClpP mod -1.7%, gsp antag 18% and CtBP-E1A inh 3.
For CN1CCc2c(sc(NC(=O)C3CCCCC3)c2C(N)=O)C1 the results were Sfp PPTase inh -5%, gsp agonist -4%, Menin-MLL FL inh 1.8, TRPV1 potentiator -4, ClpP mod -12%, gsp antag -4% and CtBP-E1A inh 4.
Screening Cc1ccc(-n2c(SCC(=O)N3CCOCC3)nnc2-c2cccnc2)cc1C returned Sfp PPTase inh 4%, gsp agonist 21%, Menin-MLL FL inh -1.1, TRPV1 potentiator 1, ClpP mod -2.4%, gsp antag -12% and CtBP-E1A inh 1.
Cc1ccccc1Nc1nc(N)nc(CSc2ccc(F)cc2)n1 was read as Sfp PPTase inh -4%, gsp agonist 4%, Menin-MLL FL inh -3.1, TRPV1 potentiator 1, ClpP mod 0.7%, gsp antag 0% and CtBP-E1A inh 0.
CC(C)CC1C(=O)N(Cc2cn(Cc3ccco3)nn2)CCS(=O)(=O)N1Cc1ccc(-c2ccc(Cl)c(Cl)c2)cc1 (stereo not drawn) was read as gsp agonist -79%[inhibitor], ClpP mod -7.4% and CtBP-E1A inh 0.

Source: PubChem (National Center for Advancing Translational Sciences (NCATS))

Hits appear at their usual frequency; about 5.3% have a hit in one of these screens.
